A1 apoptosis 2 – A1 inhibitors via caspase activation, primary screen, cell-based, luminescence, HTS, two replicates | MEF A1-2A-BIM cells, caspase-Glo luminescence, 3 h; percent of clofoctol response, DMSO zero | caspase activation, % (no concentration beside the values) | 24,000 tested, under 10 active; in the data active = caspase activation above about 5.9%; inconclusive = no clear call, values can overlap the other calls; inactive = below about 2.2%;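 also: wells of about 30 µL received 50 nL stock; the first replicate is given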
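Material: A1-2A-BIM-expressing MEF cells. Buffer or medium: RPMI-1640 plus 10% FBS. Incubation: cells settled overnight, compound exposure 3 h at 37 °C, 5% CO2. Signal: Caspase-Glo 3/7 luminescence, 1 h at room temperature.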
* marks the source's active call; other numbers are inactive results; ? = inconclusive. These rows are one share of the data; the hit share may differ from the screen's.

SMILES	A1 apoptosis 2
C[C@H]1CN([C@@H](C)CO)C(=O)c2cccc(NS(=O)(=O)c3cccs3)c2O[C@H]1CN(C)S(C)(=O)=O	-0.3
C[C@@H]1CN([C@@H](C)CO)C(=O)CCCn2cc(nn2)CO[C@H]1CN(C)Cc1ccc(C(F)(F)F)cc1	-1.1
C[C@H]1CCCCO[C@@H](CN(C)C(=O)CCCN(C)C)[C@@H](C)CN([C@@H](C)CO)C(=O)c2cc(NS(=O)(=O)c3ccccc3)ccc2O1	0.4
CC(C)=CCC[C@H](C)C/C=N/NC(=O)CCCCC(=O)NO	-0.3
C[C@@H]1CN([C@@H](C)CO)C(=O)Cc2cc(NC(=O)CCCCCC(=O)Nc3ccccc3N)ccc2O[C@@H]1CN(C)Cc1ccc2c(c1)OCO2	0.1
C[C@H]1CN([C@@H](C)CO)C(=O)Cc2cc(NC(=O)CCC(F)(F)F)ccc2O[C@@H]1CN(C)C	0.3
C[C@H](CO)N1C[C@H](C)[C@H](CN(C)CC2CC2)Oc2ccc(NS(=O)(=O)c3cn(C)cn3)cc2CC1=O	0.0
COCCOC(=O)N1C(=O)[C@@]2(c3ccccc31)[C@H](C(=O)N1CCN(c3ncccn3)CC1)[C@H]1C(=O)O[C@H](c3ccccc3)[C@H](c3ccccc3)N1[C@@H]2c1ccc(OCCO)cc1	0.1
CCCN(C)C[C@@H]1OCCCC[C@H](C)Oc2ccc(NC(=O)C3CCCCC3)cc2C(=O)N([C@H](C)CO)C[C@@H]1C	-0.7
C[C@H](CO)N1C[C@H](C)[C@@H](CN(C)S(=O)(=O)c2cn(C)cn2)Oc2ccc(NS(=O)(=O)c3cn(C)cn3)cc2C1=O	2.1
C[C@@H]1CN([C@H](C)CO)C(=O)c2cc(NC(=O)Nc3ccccc3)ccc2O[C@@H](C)CCCCO[C@@H]1CN(C)Cc1ccncc1	-0.5
C[C@@H]1CN([C@H](C)CO)C(=O)Cc2cc(NC(=O)Nc3cccc4ccccc34)ccc2O[C@@H]1CN(C)S(=O)(=O)c1cccs1	0.1
C[C@@H]1CN([C@H](C)CO)C(=O)c2cc(NS(=O)(=O)c3ccc(Cl)cc3)ccc2O[C@@H](C)CCCCO[C@@H]1CN(C)C(=O)CCCN(C)C	-0.1
C[C@@H]1CN([C@H](C)CO)C(=O)CCCn2nncc2CO[C@@H]1CN(C)S(=O)(=O)c1ccc(F)cc1	-0.7
Cc1noc(C)c1NC(=O)Nc1ccc2c(c1)CC(=O)N([C@H](C)CO)C[C@H](C)[C@H](CN(C)S(=O)(=O)c1ccc(F)cc1)O2	-0.4
Cc1noc(C)c1S(=O)(=O)N(C)C[C@@H]1Oc2ccc(NS(=O)(=O)c3ccc(Cl)cc3)cc2CC(=O)N([C@H](C)CO)C[C@@H]1C	-0.2
C[C@H](CO)N1C[C@H](C)[C@@H](CN(C)S(=O)(=O)c2cccs2)Oc2ccc(NC(=O)Cn3cnnn3)cc2CC1=O	-0.5
C[C@@H]1CN([C@H](C)CO)C(=O)Cc2cc(NS(=O)(=O)c3cn(C)cn3)ccc2O[C@H]1CN(C)Cc1ccncc1	-0.4
COCCOC(=O)N1C(=O)[C@@]2(c3cc(C#CC4(O)CCCCCC4)ccc31)[C@H](c1ccc(O)cc1)N1[C@H](c3ccccc3)[C@H](c3ccccc3)OC(=O)[C@H]1[C@@H]2C(=O)N1CCN(c2ncccn2)CC1	0.1
C[C@H](CO)N1C[C@H](C)[C@H](CN(C)C(=O)Nc2ccccc2)OCCCC[C@H](C)Oc2ccc(NS(=O)(=O)c3ccccc3)cc2C1=O	-1.4
C[C@@H]1CN([C@@H](C)CO)C(=O)Cc2cc(NS(=O)(=O)c3cn(C)cn3)ccc2O[C@@H]1CN(C)S(C)(=O)=O	0.1
C[C@@H]1CN([C@H](C)CO)C(=O)c2cccc(NS(=O)(=O)c3cccs3)c2O[C@@H]1CN(C)Cc1ccncc1	-0.7
C[C@@H]1CN([C@H](C)CO)C(=O)c2cc(NC(=O)Cc3ccccc3)ccc2O[C@@H]1CN(C)Cc1ccc(C(=O)Nc2ccccc2N)cc1	?
C[C@@H]1CN([C@H](C)CO)C(=O)Cc2cc(NS(=O)(=O)c3cn(C)cn3)ccc2O[C@@H]1CN(C)Cc1ccc(C(=O)O)cc1	0.0
C[C@H]1CCCCO[C@@H](CN(C)Cc2ccc(C(F)(F)F)cc2)[C@@H](C)CN([C@@H](C)CO)C(=O)c2cc(NS(C)(=O)=O)ccc2O1	-0.3
C[C@H]1CN([C@@H](C)CO)C(=O)c2cccc(NS(=O)(=O)c3ccc(Cl)cc3)c2O[C@H]1CN(C)Cc1ccc(C(=O)O)cc1	0.5
C[C@@H]1CN([C@@H](C)CO)C(=O)c2cc(NS(=O)(=O)c3cccs3)ccc2O[C@H]1CN(C)CC1CC1	0.4
C[C@H](CO)N1C[C@H](C)[C@@H](CN(C)C)Oc2c(NC(=O)Nc3ccccc3)cccc2C1=O	-0.4
CC(C)OC(=O)N(C)C[C@@H]1OCc2cn(nn2)CCCC(=O)N([C@@H](C)CO)C[C@H]1C	-1.7
C[C@@H]1CCCCO[C@@H](CN(C)Cc2ccc(C(F)(F)F)cc2)[C@@H](C)CN([C@@H](C)CO)C(=O)c2cc(NC(=O)C3CCCCC3)ccc2O1	-0.1
O=C(CCCCCC(=O)N/N=C/c1ccc(O)cc1O)NO	0.9
C[C@@H]1CN([C@@H](C)CO)C(=O)Cc2cc(NS(C)(=O)=O)ccc2O[C@@H]1CN(C)Cc1ccc(-c2ccccc2)cc1	0.1
C[C@@H]1CN([C@@H](C)CO)C(=O)Cc2cc(NC(=O)CCCCCC(=O)Nc3ccccc3N)ccc2O[C@@H]1CN(C)C(=O)NC1CCCCC1	0.9
C[C@@H]1CN([C@@H](C)CO)C(=O)c2cc(NC(=O)CCCN(C)C)ccc2O[C@@H]1CN(C)C(=O)Nc1cccc2ccccc12	-2.1
C[C@@H]1CN([C@@H](C)CO)C(=O)c2cc(NC(=O)C3CC3)ccc2O[C@@H]1CN(C)S(=O)(=O)c1cccs1	-0.3
C[C@H]1CN([C@@H](C)CO)C(=O)Cc2cc(NC(=O)CCC(F)(F)F)ccc2O[C@@H]1CN(C)S(=O)(=O)c1cccs1	-0.6
C[C@H]1CN([C@@H](C)CO)C(=O)c2cc(NC(=O)CCN3CCOCC3)ccc2O[C@@H]1CN(C)S(=O)(=O)c1cn(C)cn1	0.5
C[C@@H]1CN([C@H](C)CO)C(=O)c2cc(NC(=O)Nc3ccc4c(c3)OCO4)ccc2O[C@@H](C)CCCCO[C@H]1CN(C)S(=O)(=O)c1cccs1	-0.6
C[C@@H]1CN([C@@H](C)CO)C(=O)c2cc(NC(=O)CCN3CCOCC3)ccc2O[C@H]1CN(C)Cc1ccc(C(=O)Nc2ccccc2N)cc1	-0.6
C[C@H](CO)N1C[C@H](C)[C@H](CN(C)C(=O)Nc2ccc(C(F)(F)F)cc2)OCCCC[C@H](C)Oc2ccc(NC(=O)Nc3ccc4c(c3)OCO4)cc2C1=O	1.2

Grouped by structure: those above containing a COOH group.
SMILES	A1 apoptosis 2
C[C@@H]1CN([C@H](C)CO)C(=O)Cc2cc(NS(=O)(=O)c3cn(C)cn3)ccc2O[C@@H]1CN(C)Cc1ccc(C(=O)O)cc1	0.0
C[C@H]1CN([C@@H](C)CO)C(=O)c2cccc(NS(=O)(=O)c3ccc(Cl)cc3)c2O[C@H]1CN(C)Cc1ccc(C(=O)O)cc1	0.5

Continuation:
SMILES	A1 apoptosis 2
C[C@@H]1CN([C@@H](C)CO)C(=O)CCCn2nncc2CO[C@@H]1CN(C)C(=O)Nc1ccccc1F	0.1
C[C@@H]1CN([C@@H](C)CO)C(=O)CCCn2nncc2CO[C@@H]1CN(C)Cc1ccccc1	-0.7
C[C@@H]1CN([C@H](C)CO)C(=O)c2cc(NS(=O)(=O)c3cn(C)cn3)ccc2O[C@@H](C)CCCCO[C@H]1CN(C)S(=O)(=O)c1ccc(F)cc1	0.3
C[C@H]1CN([C@@H](C)CO)C(=O)CCCn2cc(nn2)CO[C@@H]1CN(C)C(=O)Nc1ccc(-c2cccs2)cc1	0.2
Cc1noc(C)c1NC(=O)Nc1cccc2c1O[C@@H](CN(C)S(=O)(=O)c1cccs1)[C@H](C)CN([C@H](C)CO)C2=O	0.1
Cc1noc(C)c1NC(=O)N(C)C[C@@H]1Oc2ccc(NS(=O)(=O)c3cccs3)cc2CC(=O)N([C@H](C)CO)C[C@@H]1C	-0.3
Cc1noc(C)c1S(=O)(=O)Nc1ccc2c(c1)C(=O)N([C@H](C)CO)C[C@H](C)[C@@H](CN(C)Cc1ccc(Cl)c(Cl)c1)OCCCC[C@H](C)O2	-1.2
Cc1ccc(S(=O)(=O)N(C)C[C@@H]2OCCCC[C@@H](C)Oc3ccc(NC(=O)Cc4ccccc4)cc3C(=O)N([C@@H](C)CO)C[C@H]2C)cc1	1.6
C[C@@H]1CN([C@H](C)CO)C(=O)c2cc(NC(=O)Cc3cn(C)c4ccccc34)ccc2O[C@H]1CN(C)C(=O)Nc1ccccc1	0.3
C[C@@H]1CCCCO[C@@H](CN(C)Cc2ccncc2)[C@H](C)CN([C@@H](C)CO)C(=O)c2cc(NC(=O)CCCN(C)C)ccc2O1	0.4
Cc1noc(C)c1NC(=O)N(C)C[C@H]1Oc2c(NS(=O)(=O)c3ccc(F)cc3)cccc2C(=O)N([C@H](C)CO)C[C@@H]1C	-0.1
C[C@@H]1CN([C@H](C)CO)C(=O)c2cccc(NS(=O)(=O)c3ccc(Cl)cc3)c2O[C@H]1CN(C)C(=O)Nc1ccc2c(c1)OCO2	1.0
C[C@@H]1CN([C@@H](C)CO)C(=O)c2cccc(NS(=O)(=O)c3ccccc3)c2O[C@H]1CN(C)Cc1ccc(C(=O)O)cc1	0.5
C[C@H](CO)N1C[C@H](C)[C@@H](CN(C)S(=O)(=O)c2ccccc2)OCCCC[C@H](C)Oc2ccc(NC(=O)Nc3cccc4ccccc34)cc2C1=O	1.6
C[C@H]1CN([C@@H](C)CO)C(=O)Cc2cc(NC(=O)C3CCCCC3)ccc2O[C@H]1CN(C)Cc1ccc(C(=O)Nc2ccccc2N)cc1	0.3
C[C@@H]1CN([C@@H](C)CO)C(=O)c2cccc(NC(=O)CCCCCC(=O)Nc3ccccc3N)c2O[C@H]1CN(C)S(C)(=O)=O	1.3
C[C@@H]1CCCCO[C@@H](CN(C)C(=O)C2CCCCC2)[C@H](C)CN([C@@H](C)CO)C(=O)c2cc(NS(=O)(=O)c3cccs3)ccc2O1	-0.7
C[C@@H]1CCCCO[C@@H](CN(C)CC2CCCCC2)[C@H](C)CN([C@H](C)CO)C(=O)c2cc(NS(=O)(=O)c3ccc(F)cc3)ccc2O1	-0.2
C[C@H](CO)N1C[C@H](C)[C@H](CN(C)S(=O)(=O)c2cn(C)cn2)Oc2c(NS(C)(=O)=O)cccc2C1=O	1.0
C[C@@H]1CCCCO[C@H](CN(C)Cc2ccc(Cl)c(Cl)c2)[C@H](C)CN([C@@H](C)CO)C(=O)c2cc(NC(=O)Nc3ccccc3)ccc2O1	-0.2

Grouped by structure: the entries above containing a thiophene ring, fused or not
SMILES	A1 apoptosis 2
C[C@H]1CN([C@@H](C)CO)C(=O)c2cccc(NS(=O)(=O)c3cccs3)c2O[C@H]1CN(C)S(C)(=O)=O	-0.3
C[C@@H]1CN([C@H](C)CO)C(=O)Cc2cc(NC(=O)Nc3cccc4ccccc34)ccc2O[C@@H]1CN(C)S(=O)(=O)c1cccs1	0.1
C[C@H](CO)N1C[C@H](C)[C@@H](CN(C)S(=O)(=O)c2cccs2)Oc2ccc(NC(=O)Cn3cnnn3)cc2CC1=O	-0.5
C[C@@H]1CN([C@H](C)CO)C(=O)c2cccc(NS(=O)(=O)c3cccs3)c2O[C@@H]1CN(C)Cc1ccncc1	-0.7
C[C@@H]1CN([C@@H](C)CO)C(=O)c2cc(NS(=O)(=O)c3cccs3)ccc2O[C@H]1CN(C)CC1CC1	0.4
C[C@@H]1CN([C@@H](C)CO)C(=O)c2cc(NC(=O)C3CC3)ccc2O[C@@H]1CN(C)S(=O)(=O)c1cccs1	-0.3
C[C@H]1CN([C@@H](C)CO)C(=O)Cc2cc(NC(=O)CCC(F)(F)F)ccc2O[C@@H]1CN(C)S(=O)(=O)c1cccs1	-0.6
C[C@@H]1CN([C@H](C)CO)C(=O)c2cc(NC(=O)Nc3ccc4c(c3)OCO4)ccc2O[C@@H](C)CCCCO[C@H]1CN(C)S(=O)(=O)c1cccs1	-0.6
C[C@H]1CN([C@@H](C)CO)C(=O)CCCn2cc(nn2)CO[C@@H]1CN(C)C(=O)Nc1ccc(-c2cccs2)cc1	0.2
Cc1noc(C)c1NC(=O)Nc1cccc2c1O[C@@H](CN(C)S(=O)(=O)c1cccs1)[C@H](C)CN([C@H](C)CO)C2=O	0.1
Cc1noc(C)c1NC(=O)N(C)C[C@@H]1Oc2ccc(NS(=O)(=O)c3cccs3)cc2CC(=O)N([C@H](C)CO)C[C@@H]1C	-0.3
C[C@@H]1CCCCO[C@@H](CN(C)C(=O)C2CCCCC2)[C@H](C)CN([C@@H](C)CO)C(=O)c2cc(NS(=O)(=O)c3cccs3)ccc2O1	-0.7
